Cruzain Triton = qHTS Assay for Promiscuous and Specific Inhibitors of Cruzain (with detergent); purified cruzain, Z-FR-AMC fluorescence, 0.01% Triton; Potency, µM, for the others: max response, negative = inhibition, usual class: inhibitors; actives 0.43% (n = 200,000); AID 1478, 2009; active means well fitted curve in the direction sought with a large enough effect; inconclusive means small, poorly fitted or top-dose-only effect, or another doubt; inactive means no such curve, though single readings can be large; an effect the other way counts as inactive or inconclusive;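 further: plate controls were neutral wells for no effect and buffer without enzyme for full effect; nearly all actives have a fitted effect of over 40% in size; top concentration of the series not given in the record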
Target sequence (P25779 123-467 limits assumed): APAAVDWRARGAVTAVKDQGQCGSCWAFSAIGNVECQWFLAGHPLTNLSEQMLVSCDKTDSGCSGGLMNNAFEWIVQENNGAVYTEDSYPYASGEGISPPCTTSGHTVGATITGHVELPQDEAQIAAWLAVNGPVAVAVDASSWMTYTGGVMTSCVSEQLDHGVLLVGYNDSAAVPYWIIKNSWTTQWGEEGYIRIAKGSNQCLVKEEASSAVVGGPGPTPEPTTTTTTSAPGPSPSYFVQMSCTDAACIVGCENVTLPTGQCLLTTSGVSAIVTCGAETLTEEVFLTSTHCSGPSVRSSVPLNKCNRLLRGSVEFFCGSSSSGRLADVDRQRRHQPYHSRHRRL
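15 min RT preincubation of 1.5 nM cruzain with compound, then 2 uM Z-FR-AMC added; kinetic AMC fluorescence, 60 s delta. Triton X-100 0.01%, pH 5.5.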
MARV entry inh = qHTS for inhibitors of binding or entry into cells for Marburg Virus | Marburg virus pseudotyped entry inhibition, cell reporter; control for the full effect not named in the record; about a third of the inactives were read at about 46 µM | Potency, µM (series often up to 37.8 µM), for the others: top-dose activity change, negative = inhibition, usual class: inhibitors | actives 1.8% (n = 300,000) | AID 540276, 2011; active = well fitted inhibition curve with a large enough effect; inconclusive = small, poorly fitted or top-dose-only effect, or effect the other way; inactive = flat fitted curve, though single readings scatter; tested in HEK293 cells; about a fifth of its hits are not listed in these tables; further: on the % scale 0 is the no-effect control and ±100 the full control effect; luciferase read-out
SARS PLpro yeast = qHTS of Yeast-based Assay for SARS-CoV PLP. S. cerevisiae expressing SARS-CoV PLpro, growth rescue; control for the full effect not named in the record. Potency, µM (highest dose often 32.9 µM), for inactives: top-dose activity, positive = growth rescue. actives 0.19% (n = 330,000). AID 485353, 2010; further: 0% is about no effect; nearly all actives have a fitted effect of over 55% in size; growth read by luminescence after 48 h
Lassa entry inh = qHTS for Inhibitors of binding or entry into cells for Lassa Virus. actives 1.2% (n = 300,000). Potency, µM (series often up to 37.9 µM), for inactives: at the highest dose activity change, negative = inhibition, hits mostly inhibitors. Lassa virus pseudotype entry inhibition, cell reporter; control for the full effect not named in the record; active means well fitted inhibition curve with a large enough effect; inconclusive means small, poorly fitted or top-dose-only effect, or effect the other way; inactive means flat fitted curve, though single readings scatter; tested in HEK293 cells; further: on the % scale 0 is the no-effect control and ±100 the full control effect; nearly all actives have a fitted effect of over 50% in size; luciferase read-out
RE007 growth inh = qHTS Assay for Inhibitors of the HIV-1 protein Vpr. S. pombe RE007 Vpr strain, BacTiter-Glo ATP luminescence, 24 h; control for the full effect not named in the record. Potency, µM (titrated, usually from 92.2 µM), for the others: top-dose activity change, negative = less growth. actives 0.21% (n = 360,000); active = well fitted falling curve with a large enough effect; inconclusive = small, poorly fitted or top-dose-only effect; inactive = no such curve, though single readings can be large or run the other way;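 further: on the % scale 0 is the no-effect control and ±100 the full control effect; nearly all actives have a fitted effect of over 50% in size; the assay follows cell death caused by Vpr and the record does not say whether a fall means rescue or toxicity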
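Fission yeast RE007 carrying one integrated HIV-1 vpr copy, seeded at OD 0.01 in PMG+AL medium with 23 nL pinned compound. Grown 24 h at 30 degrees; viability read by BacTiter-Glo luminescence after 5 min.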
Cruzain noTriton = qHTS Assay for Promiscuous and Specific Inhibitors of Cruzain (without detergent); purified cruzain, Z-FR-AMC fluorescence, no detergent; actives 2.3% (n = 200,000); Cruzipain (Trypanosoma cruzi), P25779; Potency, µM, inactives show max response, negative = inhibition, actives largely listed as inhibitors; active means well fitted curve in the direction sought with a large enough effect; inconclusive means small, poorly fitted or top-dose-only effect, or another doubt; inactive means no such curve, though single readings can be large; an effect the other way counts as inactive or inconclusive;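 further: plate controls were enzyme without inhibitor for no effect and buffer without enzyme for full effect; nearly all actives have a fitted effect of over 40% in size; top concentration of the series not given in the record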
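Purified cruzain at 1.5 nM, pre-incubated 15 min with compound at room temperature in 100 mM sodium acetate pH 5.5, 5 mM DTT, 0.00005% Triton X-100. Reaction started with 2 uM Z-FR-AMC; AMC fluorescence increase over 60 s gives rate.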
NS1 function inh = qHTS Assay for Inhibitors of Influenza NS1 Protein Function; S. cerevisiae slowed by influenza A NS1, growth recovery by OD600; Potency, µM (highest dose often 46.1 µM), without a hit: top-dose activity, positive = more growth; actives 0.4% (n = 270,000); AID 2326, 2010; further: actives are rising curves; nearly all actives have a fitted effect of over 50% in size
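S. cerevisiae expressing influenza A NS1, grown in glucose, washed, then diluted 1:100 into pH 6.0 -URA galactose medium with 23 nl compound. Growth recovery read as OD600; NS1-free strain serves as control.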
2A StopGo = High Throughput Screening for Foot and Mouth Disease Virus Antivirals; human cells with a luciferase reporter of 2A StopGo recoding; control for the full effect not named in the record; Potency, µM (titrated, usually from 57.9 µM), without a hit: at the highest dose signal change, negative = less light; actives 1.2% (n = 410,000); AID 1159524, 2015; active = well fitted falling curve with a large enough effect; inconclusive = small, poorly fitted or top-dose-only effect; inactive = no such curve, though single readings can be large or run the other way; tested in HEK293T cells; further: on the % scale 0 is the no-effect control and ±100 the full control effect; nearly all actives have a fitted effect of over 45% in size; luciferase light after 4 h
The depositor's hits bear a star; u = inconclusive; x = no result given; & = joins results of further samples; [ ] = dose if it differs, or a comment. Unless noted, the call rests on the fitted dose curve; in most records, active means well fitted rising curve with a large enough effect; inconclusive means small, poorly fitted or top-dose-only effect; inactive means no such curve, though single readings can be large or run the other way. Potency means the concentration at half of the fitted maximal effect. Rows were taken by chance, and some 4.7% of all compounds hit somewhere here.

SMILES	Cruzain Triton	MARV entry inh	SARS PLpro yeast	Lassa entry inh	RE007 growth inh	Cruzain noTriton	NS1 function inh	2A StopGo
COc1ccccc1C(=O)NCC(=O)OCC(=O)Nc1cccc(S(=O)(=O)N(C)C)c1	x	-1.9%[46.1 µM]	-1.0%	u	-5.9%	x	-9.0%	22.8%
COc1cc(-c2nnc(COc3ccc(Cl)cc3C)o2)cc(OC)c1OC	-0.6%	1.9%	-2.4%	u	12.2%	u	4.7%	u
CCN1CCN(CCC(=O)Nc2cc(C)ccc2C)CC1	x	11.4%[46.1 µM]	2.3%	21.3%[46.1 µM]	-6.5%	x	5.3%	1.0%
CCCCc1nc2n[nH]c(N)c2c2c1CCCC2	-5.7%	-13.3%&-13.3%	1.1%	-11.3%	-10.9%	9.0%	17.3%	-6.9%
CN(Cc1nc(-c2cnccn2)no1)CC1(c2ccccc2)CC1(C)C (stereo not drawn)	x	-14.5%[46.1 µM]	-0.7%	14.1%[46.1 µM]	-1.3%	x	-10.4%	-22.0%
COCCN(C(=O)CNC(=O)c1ccco1)C(C(=O)NC1CCCCC1)c1cccs1 (stereo not drawn)	-3.5%	-0.4%	7.9%	u	-14.2%	-7.1%	9.5%	-5.3%
CCOC(=O)CSc1nnc(-c2cccnc2)o1	-1.1%	-0.2%[46.1 µM]	18.3%	7.2%	3.6%	-1.3%	4.7%	-11.3%
CC(OC(=O)CCC(=O)N1CCN(S(=O)(=O)c2ccc3ccccc3c2)CC1)C(=O)NC(N)=O (stereo not drawn)	x	u	8.5%	10.1%[46.1 µM]	7.4%	x	-11.9%	16.2%
O=C(O)c1cccc(-n2cccc2/C=C2/NC(=O)N(c3ccc(Cl)cc3)C2=O)c1	x	u	-3.0%	-13.4%	-15.6%	x	x	13.6%
COc1ccccc1OCC(=O)O	-0.3%&0.3%	4.0%&8.1%	2.5%&-12.5%	15.2%&1.5%	-4.3%&-9.4%	2.7%&15.5%	-0.1%&6.5%	-0.4%&-18.1%
O=C(Nc1ccc2c(c1)OCO2)c1cn(Cc2ccc(F)cc2)nn1	4.4%	u	u	-1.5%	9.4%	u	0.1%	38.3%[activator]
COC(=O)c1ccc(Cl)cc1NC(=O)Nc1nnc(N2CCCC2)s1	-4.2%	1.7%[46.1 µM]	x	-2.6%[46.1 µM]	x	9.5%	x	22.7%
CCc1nc(SCC(=O)Nc2ccc(C(=O)O)cc2)n[nH]1	0.1%	x	4.3%	x	-1.5%	-1.6%	u	-17.8%
NC(=O)Cn1c(=O)n(Cc2ccccc2)c(=O)c2cccnc21	x	x	-1.6%	x	-8.5%	x	-1.8%	-24.7%
Cc1cc(=O)[nH]c(SCCCOc2ccc(F)cc2)n1	-8.4%	-1.6%	-5.1%	10.1%	10.8%	3.3%	-9.2%	-6.9%
O=C1NC(=O)C(c2ccccc2)(C2CCCC2)N1 (stereo not drawn)	x	0.0%[46.1 µM]	x	10.1%[46.1 µM]	7.0%	x	x	-7.3%
O=C1C2CC=C(Cl)CC2C(=O)N1CCN1CCOCC1 (stereo not drawn)	-3.0%	10.6%[46.1 µM]	1.5%	-0.6%	7.7%	6.1%	-6.1%	-10.1%
c1ccc(-c2nc3cnccn3c2Nc2ccc3c(c2)OCCO3)cc1	-7.7%	3.3%	-9.0%	-0.7%	-0.5%	5.6%	-13.2%	0.0%
O=C(Nc1cccc(Cl)c1)O/N=C\c1ccncc1	-1.0%	19.6%	-2.3%	2.6%	-1.9%	-6.8%	-4.4%	8.2%
CS(=O)(=O)c1ccc2nc(NC(=O)C3CCCO3)sc2c1 (stereo not drawn)	x	u	-0.2%	u	-13.5%	x	3.6%	48.7%[activator]
CC1CCN(CCCn2c(=S)[nH]c3c(sc4ccccc43)c2=O)CC1	x	-18.5%	-0.2%	-25.5%	-12.0%	x	x	28.0%
O=C(COC(=O)c1cc(=O)[nH]c2ccccc12)Nc1nccs1	x	x	-0.5%	x	-0.1%	x	4.4%	-11.3%
COc1ccc(-c2cn3cccnc3n2)cc1NC(=O)COc1ccccc1	-5.3%	x	x	-29.2%[46.1 µM]	x	u	x	-10.1%
NS(=O)(=O)c1ccc(N=Cc2c(O)n(-c3ccccc3)c(=O)[nH]c2=O)cc1	x	5.3%[46.1 µM]	0.6%	9.9%	-0.3%	x	x	-7.1%
CN1CCN(Cc2nc3c(c(=O)n(C)c(=O)n3C)n2CCCc2ccccc2)CC1	7.5%	-27.6%	-4.0%	-0.4%	15.7%	-7.6%	4.0%	-13.0%
c1ccc(-n2nnc3ccccc32)nc1	2.4%	19.9%	-5.2%	1.8%	-0.6%	0.6%	-15.9%	37.7%[activator]
Cc1ccc(C(C)C)c(OCc2n[nH]c(=S)o2)c1	x	-1.2%[46.1 µM]	0.2%	12.1%[46.1 µM]	6.6%	x	-1.0%	-4.8%
NC(=O)c1ccc(NC(=O)COC(=O)CCSc2ccccc2)cc1	x	16.0%	0.1%	-2.5%	7.5%	x	-4.9%	-2.5%
COc1ccc(S(=O)(=O)N2CCN(c3ncnc4c(-c5ccccc5)nsc34)CC2)cc1	-1.9%	-2.4%	2.6%	5.2%	-0.5%	20µM*	-6.2%	22.0%
Cc1noc(C)c1COc1ccccc1C(=O)N(C)CC(=O)Nc1cccc(F)c1	x	-4.7%	1.3%	2.3%	2.3%	x	x	-6.4%
Cc1ccc(C)c(N2CCN(C(=O)C3CCCN(S(=O)(=O)c4c(C)noc4C)C3)CC2)c1 (stereo not drawn)	-4.8%	-6.1%	-13.9%	x	-13.0%	u	-39.6%	-22.3%
CCCc1c(C)c2c(C)[nH]nc2oc1=O	0.4%	-1.3%	1.1%	-0.5%	-2.8%	-2.0%	-3.4%	-9.0%
COC(=O)c1ccc(COC(=O)CNS(=O)(=O)c2ccccc2)cc1	x	x	-2.3%	x	0.7%	x	-6.1%	-9.4%
O=C(CCl)NNc1cccc(Cl)n1	1.6%	5.9%[46.1 µM]	29.9%	1.1%	-6.0%	-6.3%	-52.6%	-14.3%
CSc1ccccc1OCc1cc(C(=O)N2CCN(C3CCCC3)C(=O)C2)no1	x	3.4%	-2.4%	1.0%	-17.3%	x	-20.1%	-1.2%
CC1CCN(C(=O)Cn2c3ccccc3c3nc4n(c(=O)c32)CCCS4)CC1	x	12.1%[46.1 µM]	-0.2%	-15.7%[46.1 µM]	8.8%	x	-0.7%	-15.9%
O=C(c1ccc2c(c1)N(Cc1ccccc1F)C(=O)c1ccccc1S2(=O)=O)N1CCCCCC1	-1.3%	-15.0%[46.1 µM]	x	-8.5%[46.1 µM]	x	12.3%	x	23.6%
CCOc1ccc(NC(=O)[C@H]2O[C@@H]3OC(C)(C)O[C@@H]3[C@H]3OC(C)(C)O[C@H]32)cc1	-0.8%	21.3%[46.1 µM]	x	14.3%[46.1 µM]	x	3.9%	x	-22.6%
CCOc1ccc(S(=O)(=O)N(C)c2ccc(OCC(=O)N3CCOCC3)cc2)cc1	2.2%	7.6%	-0.4%	11.4%	-8.5%	23.1%	1.6%	21.0%
COC(=O)c1ccc(N/C(=N/S(=O)(=O)c2ccccc2)c2ccccc2)cc1	-7.4%	-20.2%	6.4%	-13.2%	-15.8%	-9.7%	-8.2%	22.8%
COc1ccc(Br)cc1/C=C(\C(=O)O)c1ccc(S(=O)(=O)N2CCCCC2)s1	x	6.9%	-14.6%	-3.2%	4.9%	x	x	-1.2%
O=C(CSc1nnc(-c2n[nH]c3ccccc23)n1-c1ccccc1)Nc1cccc(Cl)c1	-5.7%	u	1.9%	u	-19.2%	u	21.9%	-28.1%
COc1ccc(NC(=O)c2cnc(N3CCCCC3)c3ccccc23)cc1Cl	-7.9%	x	x	-25.9%[46.1 µM]	x	-9.1%	x	u
COc1ccc2c(c1)CC(NC(=O)Nc1c(C)cc(C)cc1C)CO2 (stereo not drawn)	4.5%	x	x	14.4%[46.1 µM]	x	-1.2%	x	-19.0%
O=C(NCc1ccc2c(c1)OCO2)c1ccccc1	x	23.9%[46.1 µM]	-0.7%	u	-3.8%	x	x	12.9%
CS(=O)(=O)Nc1ccccc1C(=O)N1CCCC1	4.5%	19.7%	-8.2%	4.1%	16.7%	4.1%	-4.4%	-6.9%
Cc1cc(C)nc(SCc2ccc(C(=O)N/N=C/c3ccco3)cc2)n1	x	14.7%[46.1 µM]	-0.5%	-0.2%	9.7%	x	2.5%	40.4%[activator]
CC(C)(C)c1cc(NC(=O)C2CCCO2)no1 (stereo not drawn)	2.8%	u	-1.0%	u	-7.1%	-3.6%	-3.9%	53.5%[activator]
CC(C)(C)c1ccc(OCCC(=O)OCC(=O)N2c3ccccc3NC(=O)C2(C)C)cc1	x	10.7%	-2.3%	3.5%	-15.7%	x	x	-12.3%
Cc1cc(C(=O)O)ccc1-c1ccc(/C=C2\NC(=O)N(Cc3ccc(F)cc3)C2=O)o1	x	x	-0.4%	x	21.6%	x	2.2%	-11.9%
COc1ccc(Oc2nc3c(c(=O)n(Cc4ccccc4Cl)c(=O)n3C)n2C)cc1	-5.6%	0.6%[46.1 µM]	x	u	x	24.8%	x	0.0%
COCCNC(=O)CCC1CCN(C/C=C/c2ccccc2OC)CC1	x	2.3%[46.1 µM]	6.1%	13.9%[46.1 µM]	0.3%	x	17.8%	-12.5%
Nc1ccccc1C#Cc1ccccc1	-3.6%&-9.7%	x	-8.2%	x	-9.3%	-2.3%&-24.3%	-10.3%	53.2%[activator]
COc1ccc(CNC(=O)c2cc3c(=O)n4ccccc4nc3n(Cc3cccnc3)c2=N)cc1	-3.4%	u	0.0%	-8.7%	-16.2%	-2.8%	-6.0%	-0.6%
C=C(C)c1cccc(C(C)(C)NC(=O)NC(c2ccccc2)c2ccc(OC)cc2)c1 (stereo not drawn)	-2.4%	u	7.9%	-16.0%	15.9%	-9.8%	25.8%	-24.9%
NS(=O)(=O)c1ccc(NCc2cnc3ccccc3c2)cc1	0.1%	x	x	x	1.0%	1.5%	-3.1%	-1.4%
COc1ccc(Cl)cc1N1C(=O)[C@@H]2C(c3cccc(OC)c3OC)=NO[C@@H]2C1=O	-4.1%	u	-4.3%	-0.6%	6.2%	u	-35.3%	15.3%
O=C1C2C3C=CC(C3)C2C(=O)N1Nc1c(Cl)cc(Cl)cc1Cl (stereo not drawn)	x	x	-0.1%	x	0.5%	x	0.7%	-23.7%
